2A Renilla: FMDV 2A StopGo reporter, Renilla signal; HEK cells with a luciferase reporter of 2A StopGo recoding; Potency, µM (highest dose often 57.5 µM), for the others: at the highest dose signal change, negative = less light; 120,000 compounds, 0.32% hits; AID 1745857; active means well fitted falling curve with a large enough effect; inconclusive means small, poorly fitted or top-dose-only effect; inactive means no such curve, though single readings can be large or run the other way; further: nearly all actives have a fitted effect of over 55% in size; overnight with compound
2A firefly: lowers the firefly signal of an FMDV 2A StopGo reporter. HEK cells with a luciferase reporter of 2A StopGo recoding. AID 1745856. Potency, µM (doses to about 57.5 µM), inactives show at the highest dose signal change, negative = less light. 120,000 compounds, 0.23% hits; active = well fitted falling curve with a large enough effect; inconclusive = small, poorly fitted or top-dose-only effect; inactive = no such curve, though single readings can be large or run the other way; further: nearly all actives have a fitted effect of over 60% in size; overnight with compound
An asterisk follows results filed as active; ? = inconclusive; [ ] = another dose, or the depositor's remark. On the % scale 0 is the no-effect control and ±100 the full control effect; potency means the concentration at half of the fitted maximal effect.

SMILES	2A Renilla	2A firefly
CCc1ccc(-c2nc(CN3CCCC(C(=O)N4CCN(c5cc(Cl)ccc5C)CC4)C3)c(C)o2)cc1 (centres undefined)	?	-35%
O=C(Cc1ccc2ccccc2c1)NCCc1ccccn1	17%	38%[activator]
CCOC(=O)C1=C(CN2CCN(c3ccc(OC)cc3)CC2)NC(=O)NC1c1ccc(Cl)cc1 (centres undefined)	8%	-5%
CCOC(=O)c1c(C)[nH]c(C(=O)C(C)N(C)Cc2ccc(F)cc2)c1C (centres undefined)	2%	2%
CC(C)(C)OCC(O)CN(CCO)CC(O)Cn1ccc2ccccc21 (centres undefined)	-3%	-10%
CCCCN(Cc1cccs1)S(=O)(=O)c1cc(-c2cc(C)no2)ccc1C	57%[activator]	8%
Cc1oc2cc(OC(=O)C(C)(C)C)ccc2c(=O)c1-c1ccccc1	-11%	33%[activator]
CC1CCCN(CCCn2c(=O)c3c(ncn3C)n(C)c2=O)C1 (centres undefined)	-4%	-8%
COC(=O)Cn1c(=O)c2c(nc(-n3nc(C)cc3C)n2CCc2ccccc2)n(C)c1=O	18%	6%
CC(C)CCCC(C)N (centres undefined)	-17%	-5%[11.5 µM]
CCOC(=O)c1c(C)[nH]c(C)c1S(=O)(=O)N(C)CC(=O)Nc1ccc(CC)cc1	122%[activator]	-10%
COc1ccccc1-c1nc(SCC(=O)Nc2ccc(C)c(C)c2)n[nH]1	-8%	-6%
COc1ccc(NC(=O)c2ccc3c(=O)n4nc(Nc5cccc(Cl)c5C)sc4nc3c2)cc1	-5%	2%
Cc1ccc2oc(-c3ccc(Cl)c(NC(=O)c4cc([N+](=O)[O-])ccc4N4CCOCC4)c3)nc2c1	-8%	177%[activator]
CC(=O)c1cccc(NC(=O)CSc2nc(=O)n(Cc3ccco3)c3c2CCC3)c1	135%[activator]	-17%
CC(C)(C)OC(=O)C(C#N)c1nc2ccccc2nc1Cl (centres undefined)	15%	?
COc1ccccc1CNC(=O)CN1CCC(c2nc3cc(Cl)ccc3s2)CC1	-4%	15%
CCNc1ccc(S(=O)(=O)N2CCOCC2)cc1NC(=O)Cc1c[nH]c2ccccc12	39%[activator]	-7%
CC(C)CCn1c(SC(C)C)nc2c1c(=O)[nH]c(=O)n2C	-2%	9%
CNC(=O)C(C)OC(=O)c1nn(-c2ccccc2)c(=O)c2ccccc12 (centres undefined)	-7%	-11%
O=C(CCSc1nc2ccccc2s1)Nc1ccc(F)cc1	88%[activator]	?
Cc1cc(C)cc(NC(=O)CSc2nc(=O)[nH]c3c2CCC3)c1	10%	2%
CCN(CC(=O)NCc1cccs1)C(=O)C1CC(=O)N(c2cc(Cl)ccc2OC)C1 (centres undefined)	3%	5%
CCCC1CC(C(=O)NC(C(C)O)C2OC(SC)C(O)C(O)C2O)N(C)C1 (centres undefined)	-5%	3%
CCOC(=O)C1CCN(C(=O)CCC(=O)NCCC2=CCCCC2)CC1	3%	0%
(more compounds)
SMILES	2A Renilla	2A firefly
CC(NC(=O)/C(C#N)=C\c1cccc(Oc2ccccc2)c1)c1ccccc1 (centres undefined)	2%	0%
Cc1cccc(OCC(O)CNC23CC4CC(CC(C4)C2)C3)c1 (centres undefined)	-10%	-14%
O=C(CCNC(=O)C1CCCC1)NC1CCCC1	-3%	2%
COc1ccc(OC(=O)c2cc(-c3ccc4c(c3)OCCO4)on2)cc1	-6%	0%
C=CC[N+](C)(C)Cc1cccc2ccccc12	-5%	-7%
CN1CCN(S(=O)(=O)c2ccc(NC(=O)Cn3cnc4ccccc4c3=O)cc2)CC1	?	-32%
c1csc(CNCCN2CCCC2)c1	31%[activator]	45%
COc1ccccc1C(=O)NC1(C(F)(F)F)NC(=O)N(CCc2ccccc2)C1=O (centres undefined)	0%	6%
CC(C)=CC(=O)N(Cc1ccco1)C1CC1	-2%	-5%
FC(F)(F)c1ccc2c(c1)ncc1c(-c3ccccc3)nn(-c3ccccc3)c12	1%	-3%
O=C(c1ccc2c(c1)N(Cc1ccccc1F)C(=O)c1ccccc1S2(=O)=O)N1CCC(Cc2ccccc2)CC1	-8%	?
CC(=O)c1ccc(NS(=O)(=O)c2ccc3[nH]c(=O)[nH]c3c2)cc1	27%	25%
CCOc1ccc(NC(=O)CC2C(=O)N(c3cccc(C)c3)C(=O)N2CCC2=CCCCC2)cc1 (centres undefined)	100%[activator]	-9%
CCc1cccc(NC(=O)CSc2ncccc2C(=O)Oc2ccccc2Cl)c1	0%	-12%
COc1cccc2c1ncc1c(-c3ccc(C)cc3)nn(-c3ccc(F)cc3)c12	-16%	-13%
CCOC(=O)c1c(C)[nH]c(C)c1S(=O)(=O)N1CCCC(C(=O)NCc2ccc(Cl)cc2)C1 (centres undefined)	148%[activator]	-8%
COc1ccccc1N(CC(=O)NCCc1ccc(F)cc1)S(=O)(=O)c1ccccc1	79%[activator]	-5%
CN1CCN(c2oc(-c3ccccc3F)nc2S(=O)(=O)c2ccc3c(c2)OCCO3)CC1	127%[activator]	1%
Cc1cc(-n2c(C)cc(C(=O)CSc3nnc(COc4ccccc4Cl)o3)c2C)no1	-5%	13%
O=C(OC1CCCCC1)c1cccc(CS(=O)(=O)c2ccccc2)c1	-1%	13%
Cc1ccc(NC(=O)c2cc3c(cc2C)OCCCO3)c(C)c1	11%	179%[activator]
COc1ccc(CNC(=O)CSc2nc3ccccc3nc2N2CCCCC2)cc1	-1%	2%
CC1CCc2sc(C(=O)OCC(=O)Nc3ccc([N+](=O)[O-])cc3C(F)(F)F)cc2C1 (centres undefined)	4%	4%
CN(C)S(=O)(=O)c1ccc2c(c1)nnn2CCNC(=O)Nc1ccc(Br)cc1	0%	-14%
O=C(Cn1cc(SCc2ccccc2F)c2ccccc21)N1CCCCCC1	72%[activator]	94%[activator]
The results go on:
SMILES	2A Renilla	2A firefly
Cc1ccc(NCc2ccccc2-c2nnc(-c3ccccc3Cl)o2)c(C)c1	-14%	34%[activator]
O=C(Nc1ccccc1[N+](=O)[O-])C(F)(F)C(F)(F)C(F)(F)F	13%	5%
CN(C)CCN(Cc1ccc(F)cc1)C(=O)c1ccc(S(C)(=O)=O)cc1	-9%	63%[activator]
CC(=O)c1cccc(Nc2nc3ccccc3nc2NS(=O)(=O)c2cc(C)ccc2C)c1	2%	-1%
O=C1CCCN1c1cccc(-c2csc(-c3ccsc3)n2)c1	19%	228%[activator]
COc1ccc2cc(C(=O)N3CCN(c4ccccc4F)CC3)c(C)nc2c1	20%	9%
CN1CCN(C(=O)Cn2ccc3c(Br)cccc32)CC1	-9%	20%
O=c1cc(CSc2n[nH]c(-c3ccccc3)n2)nc2sc3c(n12)CCCC3	69%[activator]	-1%
CCOc1cccc(C2c3c(oc4ccc(F)cc4c3=O)C(=O)N2CCc2ccc(OC)cc2)c1 (centres undefined)	34%[activator]	-5%
Cc1cccc(NC(=O)CNC(=O)CCc2ncc(-c3ccccc3F)o2)c1C	-2%	123%[activator]
Cc1cccc(NC(=O)CCCc2nc3ccccc3o2)c1	17%	27%
CC(C)c1ccc(Nc2sc(C(=O)c3ccccc3)c(N)c2S(=O)(=O)c2ccccc2)cc1	10%	-12%
CC(=O)c1cccc(NC(=O)c2ccc3c(c2)CCN3S(=O)(=O)c2ccccc2)c1	28%	-6%
CC(C)C(=O)Nc1ccc2[nH]cc(C(C(=O)O)N3CCCCC3)c2c1 (centres undefined)	-2%	0%

Looked up above:
For 2A Renilla, Cc1cc(C)cc(NC(=O)CSc2nc(=O)[nH]c3c2CCC3)c1 shows 10%
For 2A firefly, O=C(Nc1ccccc1[N+](=O)[O-])C(F)(F)C(F)(F)C(F)(F)F shows 5%

Not a retest: an excerpt of the list.
SMILES	2A Renilla	2A firefly
C=CC[N+](C)(C)Cc1cccc2ccccc12	-5%	-7%
CN1CCN(S(=O)(=O)c2ccc(NC(=O)Cn3cnc4ccccc4c3=O)cc2)CC1	?	-32%
c1csc(CNCCN2CCCC2)c1	31%[activator]	45%
COc1ccccc1C(=O)NC1(C(F)(F)F)NC(=O)N(CCc2ccccc2)C1=O (centres undefined)	0%	6%
CC(C)=CC(=O)N(Cc1ccco1)C1CC1	-2%	-5%
FC(F)(F)c1ccc2c(c1)ncc1c(-c3ccccc3)nn(-c3ccccc3)c12	1%	-3%
O=C(c1ccc2c(c1)N(Cc1ccccc1F)C(=O)c1ccccc1S2(=O)=O)N1CCC(Cc2ccccc2)CC1	-8%	?
CC(=O)c1ccc(NS(=O)(=O)c2ccc3[nH]c(=O)[nH]c3c2)cc1	27%	25%
CCOc1ccc(NC(=O)CC2C(=O)N(c3cccc(C)c3)C(=O)N2CCC2=CCCCC2)cc1 (centres undefined)	100%[activator]	-9%
CCc1cccc(NC(=O)CSc2ncccc2C(=O)Oc2ccccc2Cl)c1	0%	-12%
COc1cccc2c1ncc1c(-c3ccc(C)cc3)nn(-c3ccc(F)cc3)c12	-16%	-13%
CCOC(=O)c1c(C)[nH]c(C)c1S(=O)(=O)N1CCCC(C(=O)NCc2ccc(Cl)cc2)C1 (centres undefined)	148%[activator]	-8%
COc1ccccc1N(CC(=O)NCCc1ccc(F)cc1)S(=O)(=O)c1ccccc1	79%[activator]	-5%
CN1CCN(c2oc(-c3ccccc3F)nc2S(=O)(=O)c2ccc3c(c2)OCCO3)CC1	127%[activator]	1%
Cc1cc(-n2c(C)cc(C(=O)CSc3nnc(COc4ccccc4Cl)o3)c2C)no1	-5%	13%
O=C(OC1CCCCC1)c1cccc(CS(=O)(=O)c2ccccc2)c1	-1%	13%
Cc1ccc(NC(=O)c2cc3c(cc2C)OCCCO3)c(C)c1	11%	179%[activator]
COc1ccc(CNC(=O)CSc2nc3ccccc3nc2N2CCCCC2)cc1	-1%	2%
CC1CCc2sc(C(=O)OCC(=O)Nc3ccc([N+](=O)[O-])cc3C(F)(F)F)cc2C1 (centres undefined)	4%	4%
CN(C)S(=O)(=O)c1ccc2c(c1)nnn2CCNC(=O)Nc1ccc(Br)cc1	0%	-14%
O=C(Cn1cc(SCc2ccccc2F)c2ccccc21)N1CCCCCC1	72%[activator]	94%[activator]
Cc1ccc(NCc2ccccc2-c2nnc(-c3ccccc3Cl)o2)c(C)c1	-14%	34%[activator]
O=C(Nc1ccccc1[N+](=O)[O-])C(F)(F)C(F)(F)C(F)(F)F	13%	5%
CN(C)CCN(Cc1ccc(F)cc1)C(=O)c1ccc(S(C)(=O)=O)cc1	-9%	63%[activator]

Assay outcomes (PubChem BioAssay)

This is a subset (hit frequency here may not be typical).
